# UUG fidelity: modulators of start codon recognition fidelity in yeast | S. cerevisiae UUG-firefly luciferase reporter, luminescence/redox ratio | activity score, % at 18.7 µM | 350,000 compounds, 0.13% hits | AID 602363;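 active means replicate mean at a twofold rise or more, about +100% in these data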;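 further: firefly luciferase made from a UUG start codon reports start codon fidelity; reporter light over untreated wells divided by growth signal over untreated wells; some hits fall short of that in this replicate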
# Env fusion inh: HIV envelope-mediated fusion inhibition; AID 651610; 360,000 compounds, 1.1% hits; inhibition, % at 12.3 µM; HeLa-JRFL Env/CEM21 cell fusion, luciferase;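 active means mean replicate inhibition score of at least 50 and every replicate individually at or above 50; inconclusive means only one of the two criteria met; inactive means mean below 50 and not all replicates reaching 50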;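 further: 0% = plate neutral controls and 100% = maraviroc near 300 nM; one replicate is shown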
# MT1-MMP act inh: MT1-MMP (human) activation inhibition. P50281. HT1080 RFP-PRO-GFP cells, GFP/RFP ratio fluorescence, overnight; percent of plate control window, DMSO zero. GFP/RFP ratio change, % at 20 µM. 360,000 compounds, 0.061% hits. AID 651647;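 active means GFP/RFP ratio change of at least 30% with cell ATP level not reduced by more than half and red fluorescence within 50% of control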; further: strong numbers were not always called active
#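 Read-out: GFP/RFP fluorescence ratio; Test system: RFP-PRO-GFP reporter HT1080 cells; Compound dosing: single-point 20 µM compound, 1% DMSO; Times: overnight compound exposure at 37 °C.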
# eIF4H inh: inhibitors of RNA binding by human eIF4H | AID 2012 | eIF4H fluorescence polarization binding assay | 290,000 compounds, 0.94% hits | inhibition, % at 35 µM;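 active means 50% or more with normal probe brightness, or confirmed in later tests; inconclusive means above 50% with abnormal brightness, or retests that disagree; inactive means below 50% or failed in later tests; about a fifth of its hits are not listed in these tables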;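 further: calls also rest on retests at 20 µM and on dose response follow-up; 0% = protein and probe with vehicle and 100% = probe without protein; strong numbers were not always called active; many hits fall short of the cut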
# PABP polyA inh: PABP-poly(A) binding inhibition | P11940 | PABP-poly(A) RNA binding, fluorescence polarization | inhibition, % at 35 µM | 290,000 compounds, 1% hits;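 active means 50% or more with normal probe brightness, or confirmed in later tests; inconclusive means above 50% with abnormal brightness, or retests that disagree; inactive means below 50% or failed in later tests; about a fifth of its hits are not listed in these tables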;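 further: calls also rest on retests at 20 µM and on dose response follow-up; controls were probe without protein and protein plus probe with vehicle; some compounds called inactive have numbers as strong as hits; many hits fall short of the cut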
# CSC inhib: blocks cancer stem cells; AID 2717; cancer stem cell-like cells viability, luminescence; 300,000 compounds, 1.1% hits; inhibition, % at 7.5 µM;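 active means mean at 75% or more and at least half the replicates too; inconclusive means mean and replicates disagree; tested in HMLE shEcad cells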;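 further: 0% = median of negative and 100% = median of positive control wells; the first replicate is given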
# Rce1 inhib: blocks yeast Ras-converting enzyme. yeast membranes, quenched prenylated peptide cleavage fluorescence. calls only. 290,000 compounds, 0.27% hits. AID 2563;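 active means fall in fluorescence gain of 50% or more versus controls, with final raw signal at or below 3038400; inconclusive means same 50% fall but final raw signal above 3038400; inactive means fall in fluorescence gain under 50%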;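 further: plate controls were neutral control wells for no effect and wells lacking membranes for full effect; tested at 10 µM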
# Target sequence (Q03530 whole entry, looked up): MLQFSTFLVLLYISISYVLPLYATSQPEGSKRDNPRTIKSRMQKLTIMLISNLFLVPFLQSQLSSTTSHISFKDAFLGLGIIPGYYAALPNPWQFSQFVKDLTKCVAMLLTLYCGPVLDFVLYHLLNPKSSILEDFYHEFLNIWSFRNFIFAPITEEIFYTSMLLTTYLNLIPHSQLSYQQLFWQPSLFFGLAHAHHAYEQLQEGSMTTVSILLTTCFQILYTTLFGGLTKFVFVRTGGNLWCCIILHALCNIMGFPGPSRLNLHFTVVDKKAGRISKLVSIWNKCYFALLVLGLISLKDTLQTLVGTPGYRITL
# MT1-MMP act inh RFP: recorded beside MT1-MMP act inh, whose call it bears; RFP signal change, %; measured here: RFP expression control read;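 0 = vehicle wells; hits needed this value within 50% of zero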
# Active calls of the source: *; i = inactive; ? = inconclusive; nt = not tested or not shown.
SMILES,UUG fidelity,Env fusion inh,MT1-MMP act inh,MT1-MMP act inh RFP,eIF4H inh,PABP polyA inh,CSC inhib,Rce1 inhib
O=c1c2ccccc2nc(/C=C/c2cc(Br)ccc2O)n1CCCO,-8,i,-12,-20,-11,8,52,i
O=C(O)c1cc(S(=O)(=O)N2CCOCC2)ccc1N1CCOCC1,-23,-50,0,2,-3,5,nt,i
Clc1ccc(CN2CCN(c3ccccc3)CC2)cn1,-14,-2,0,-1,4,-9,7,i
O=C(CCC1CCCN(C(=O)Cn2cnnn2)C1)NCc1ccc(F)c(F)c1 (stereo not drawn),nt,1,-4,0,-8,7,2,i
CCOc1cc(C2C(C(=O)O)c3cc(OCC)c(OCC)cc3C(=O)N2C)ccc1O (stereo not drawn),-7,nt,3,-1,6,-10,2,i
Cc1nc(N2CCOCC2)c2c3c(sc2n1)CCC3,-7,8,-8,1,-1,1,-7,i
CC(=O)Nc1ccc(NC(=O)CN2C(=O)NC3(CCCCCCC3)C2=O)cc1,2,-4,0,5,nt,nt,-11,nt
Cc1nc2ccc(NC(=O)c3ccc(N4C(=O)CCC4=O)cc3)cc2s1,1,17,6,5,-4,-7,-11,i
COc1ccc(CNC(=S)NCc2ccc(OC(C)C)cc2)cc1,-34,-3,-1,2,-7,4,5,i
CC1=CC(C2CC(=O)N(c3ccccc3C)C2=O)CC2C(=O)N(c3ccccc3C)C(=O)C12 (stereo not drawn),nt,-9,-3,1,-8,-3,-28,i
COc1ccc(S(=O)(=O)N2CCC(C(=O)Nc3ccccc3N3CCCC3)CC2)cc1OC,-13,2,-3,-2,-9,0,1,i
CC(C)(C)c1ccc(CC(=O)N2CCC2(C)C(=O)NS(=O)(=O)c2ccc(C#N)cc2)cc1 (stereo not drawn),-12,-179,3,6,nt,nt,nt,nt
Cc1cccc(C(=O)NN2C(=O)C3C(c4ccccc4)C=CC(c4ccccc4)C3C2=O)c1 (stereo not drawn),-9,nt,-4,-2,-12,9,4,i
CC(C)CC(=O)NC(c1ccccc1)c1c(O)ccc2ccccc12 (stereo not drawn),-9,-16,-3,-8,-7,2,-2,i
CC(OC(=O)c1ccccc1CCc1ccccc1)C(N)=O (stereo not drawn),-9,19,-3,-1,1,9,12,i
O=S1(=O)CCOC[C@H](Cc2ccccc2)N1Cc1ccccc1F,3,6,1,-2,nt,nt,6,i
O=C(CSc1nc2nn(-c3ccccc3)c(=O)c-2c2n1CCCCC2)Nc1ccccc1[N+](=O)[O-],-2,?,-2,-1,nt,nt,nt,nt
CCNC(=S)N(CCCN(C)C)Cc1cc2cc3c(cc2[nH]c1=O)OCCO3,-12,-6,-1,3,-9,1,-19,i
COc1ccc(/C=C2\SC(=S)N(CCC(=O)Nc3ccc(C(=O)O)cc3)C2=O)cc1,-5,-10,-3,-1,38,14,-12,i
COc1ccc(CC(=O)N2CC(C)CC(C)C2)cc1 (stereo not drawn),-8,nt,-2,0,-5,3,-2,i
CCC(=O)Nc1cccc(-n2nnnc2SCC(=O)c2ccc(C)c(C)c2)c1,nt,1,0,-12,-4,2,-1,nt
O=C(COc1ccccc1C(=O)NCc1ccccn1)Nc1ccc(Br)cc1,nt,-4,2,-1,3,5,nt,i
CS(=O)(=O)c1ccccc1-c1nnc(NC(=O)C2=COCCO2)o1,-21,i,0,3,nt,nt,13,i
CCNC(=O)C1CCCN(C(=O)c2ccc(C#N)cc2)CC1 (stereo not drawn),-17,5,-1,5,nt,nt,nt,nt
C=C(C)[C@@H]1CC=C(CN2CCN(Cc3ccccc3)CC2)CC1,nt,24,-1,0,-11,11,22,i
CC(C)(CN1CCCN(CC(C)(C)C(=O)O)C1=O)C(=O)O,6,-18,5,-2,nt,nt,nt,nt
CN(C)S(=O)(=O)N1CCC(Oc2cccc(C(=O)NC3CCCCCC3)c2)CC1,-11,29,9,-28,-15,0,-3,i
O=C(NCCCCCCOC1=NS(=O)(=O)c2ccccc21)C(=O)Nc1ccccc1,-4,33,6,-3,-3,-6,-21,i
CC(=O)Nc1ccc(C(=O)OC2CCCCC2=O)cc1 (stereo not drawn),-9,-13,nt,nt,-7,3,-3,nt
Cc1nn(C)c(C)c1NC(=O)c1ccccc1NC(=O)Nc1ccccc1,-18,-2,1,1,-4,-6,-9,i
COc1ccc(CNC(=O)C2CCN(S(=O)(=O)c3ccc4c(c3)N(C(C)=O)CCO4)CC2)cc1,5,-5,2,0,2,7,-1,i
Oc1ccccc1C(=S)N1CCCC1,-1,9,-2,5,2,9,-5,i
Cc1ccc(CNS(=O)(=O)c2cn(C)c(=O)n(C)c2=O)cc1,-12,-175,1,4,-7,-8,-17,i
COc1ccc2[nH]c3c(c2c1)CCN1C(=O)C(CC(=O)NCCC2=CCCCC2)C[C@H](C(=O)N2CCCCC2)[C@@]31CCc1ccccc1 (stereo partly drawn),-13,-10,-25,-21,nt,nt,nt,nt
CCN(C)Cc1c(C(=O)N2CCc3ccccc3C2)nc2ccc(Cl)cn12,nt,-13,-3,4,26,22,-2,i
Cn1cc(Br)c(C(=O)Nc2c(F)c(F)c(F)c(F)c2F)n1,-6,-10,1,-1,-6,-2,-2,i
Cc1cc(C)c(OCC(=O)N/N=C/c2ccco2)c(C)c1,-13,nt,-4,0,-1,-5,-4,i
COc1ccc(S(=O)(=O)N2CCN(CC(=O)N3CCNC3=O)CC2)cc1OC,1,-21,0,2,nt,nt,nt,nt
CCOC(=O)c1c(N)c(C#N)nn1-c1ccccc1C(=O)OC,nt,15,nt,nt,3,-12,nt,i
Cc1cccc(CC2CC(=O)N(c3nc4ccccc4s3)C2=O)c1 (stereo not drawn),-16,3,2,-2,-7,5,-11,i
COC1OC2COC(c3ccccc3)OC2C2OC(c3ccccc3)OC12 (stereo not drawn),4,6,1,2,nt,nt,nt,nt
Cn1c(=O)c2c(nc(NCC3CCCO3)n2C)n(C)c1=O (stereo not drawn),-11,-32,4,3,-1,-3,1,i
O=C(CCC(=O)N(c1cccc(F)c1)C(C(=O)NC1CCCC1)c1ccncc1)Nc1cccnc1 (stereo not drawn),-8,-36,5,0,-5,3,nt,i
O=C1NC(=Nc2ccccc2Cl)S/C1=C\c1cccc([N+](=O)[O-])c1O,-10,-17,2,-1,10,-1,34,i
CCOC(=O)C1=NOC2C(=O)N(c3ccc(Cl)cc3Cl)C(=O)C12 (stereo not drawn),nt,6,1,-4,2,-1,nt,i
Cc1c(CCC(=O)O)c(=O)oc2cc(OCc3ccc(Br)cc3)ccc12,-7,-2,2,2,3,4,16,i
COc1ccc(CC(=O)N2CCc3cc(OC)c(OC)cc3C2C)c(OC)c1 (stereo not drawn),3,nt,-2,-3,-2,4,-9,i
CC(=O)N1CCN=C1SCc1ccccc1F,-4,-19,1,6,-4,-12,2,i
O=C(Nc1ccncc1)c1cc(S(=O)(=O)N2CCOCC2)ccc1Cl,-17,8,0,-1,nt,nt,nt,i
CCOC(=O)c1ccsc1NC(=O)c1ccco1,-30,16,-3,-2,-2,-3,6,i
Cc1[nH]c(=O)[nH]c(=O)c1S(=O)(=O)Nc1ccc(F)cc1Cl,-22,10,0,3,-9,11,-2,i
CCOc1ccc2oc(C(=O)N3CC(C)OC(C)C3)c(C)c2c1 (stereo not drawn),2,2,0,-4,-9,-5,-3,i
CCO/C(C)=N/Oc1cccc(N(C)C)c1,-3,1,2,8,nt,nt,nt,nt
Cc1cc(C)c(OCC(=O)Nc2cc(C(=O)O)cc(C(=O)O)c2)cc1C,nt,6,2,3,2,-52,-13,i
CC(=O)/C=C/c1ccc2ccccc2n1,nt,nt,-11,-10,4,3,19,i
O=[N+]([O-])c1cc(Cl)ccc1N1CCCCC1,nt,15,-1,1,6,-16,nt,i
COc1ccc(CNC(=O)Nc2nnc([C@H]3C[C@H](O)[C@@H](CO)O3)s2)cc1,-5,-28,-6,7,nt,nt,nt,nt
Cc1c(/C=C(\C#N)C(=O)NCc2ccccc2)cc(C#N)n1C,-4,6,-4,0,-3,10,4,i
CN(C(=O)c1cccc(NC(=O)Cc2ccc(NC(=O)C3CCCN(C(=O)CCc4ccccc4)C3)cc2)c1)C1CCCCC1 (stereo not drawn),-14,49,6,-27,nt,nt,nt,nt
O=C(CCN1C(=O)C2(OCCO2)c2ccccc21)c1ccccc1,-10,nt,-3,0,3,-1,-12,i
# Next section.
SMILES,UUG fidelity,Env fusion inh,MT1-MMP act inh,MT1-MMP act inh RFP,eIF4H inh,PABP polyA inh,CSC inhib,Rce1 inhib
Cc1cc(=O)n(C)c(=O)n1CCCCCCN1CCCC1,-11,nt,3,-2,10,6,8,i
Cc1ccc(S(=O)(=O)c2c(C)cc(-c3ccccc3)[nH]c2=O)cc1,-19,-62,2,0,-6,-11,32,i
Cc1ccccc1-c1nnc(SCC(=O)Nc2c(C)n(C)n(-c3ccccc3)c2=O)o1,10,-34,1,-5,nt,nt,-7,i
CC(C)COc1ccc(C(=O)N/N=C/c2ccoc2)cc1,-8,13,2,4,-12,-7,7,i
O=C(Nc1ccccc1C(F)(F)F)NC1CCCCC1,-12,nt,2,4,-12,2,10,nt
CSc1ccccc1NC(=O)Cn1nnc(-c2ccc(S(C)(=O)=O)cc2)n1,nt,-2,-3,0,-1,8,0,nt
COc1ccc(-n2c(SC3CCOC3=O)nc3ccccc3c2=O)cc1OC (stereo not drawn),-9,2,7,8,-4,-10,-7,i
CC(OC(=O)C1COc2ccccc2O1)C(=O)c1ccccc1 (stereo not drawn),-25,-5,-1,3,nt,nt,nt,nt
Cc1ccsc1/C=C1/SC(=O)N(CC(=O)N2CCCC2)C1=O,4,0,-4,-3,-2,5,-4,i
CC(CN1CCCC1)OC(=O)c1ccc(Cl)cc1Cl (stereo not drawn),-9,8,1,2,-8,-13,-8,i
Cn1cccc1C(C#N)c1cccc(F)c1C#N (stereo not drawn),nt,0,5,4,-2,-12,-5,i
Cc1ccc(C(=O)NNC(=O)C2CCN(Cc3ccccc3)CC2)cc1,nt,nt,1,6,9,6,nt,i
Cc1nnc(SCc2ccccn2)n(N)c1=O,nt,21,-3,2,2,-4,nt,i
N=C1C(c2nc3ccccc3c(=O)[nH]2)=C(O)CN1CCc1ccccc1,-7,nt,5,4,-4,5,-12,i
COc1cccc(CNC(=O)c2ccc(C)c(S(=O)(=O)N3CCOCC3)c2)c1,3,-10,2,5,nt,nt,-5,i
COc1ccc(C)cc1NC(=O)CSc1nnc(COc2ccccc2)n1Cc1ccco1,-1,27,4,-5,-5,1,38,i
C=CCn1c(SCC(=O)c2cccs2)nc2sc(C)c(C)c2c1=O,-1,24,4,-1,-3,6,45,i
c1cc2c(c(NCc3ccncc3)c1)CCCC2,-17,23,5,-9,-2,12,21,nt
COc1ccc(S(=O)(=O)NCc2ccccn2)cc1NC(=O)c1ccc(Cl)cc1,-19,6,-1,-3,nt,nt,-7,i
COC(=O)C1=C(N)Oc2c(oc(CO)cc2=O)C1c1ccccc1F (stereo not drawn),-1,-75,7,7,-5,-2,-16,i
CCN(CC(=O)NCc1cccs1)S(=O)(=O)c1ccc(F)c(F)c1F,-14,9,2,2,nt,nt,-5,i
Cc1cc(C)c2cc3c(N)c(C(=O)N4CCOCC4)sc3nc2c1,nt,-2,0,1,-8,27,nt,i
Cc1nnc(SCC(=O)Nc2cc(S(=O)(=O)N3CCOCC3)ccc2C)s1,-9,-3,-5,-1,nt,nt,nt,nt
C/C(=N\N=C1\NC(=O)C(Cc2ccccc2)S1)c1ccccc1 (stereo not drawn),nt,-1,-14,-5,-5,-8,10,nt
COC(=O)c1cc2n(n1)CCN(Cc1ccc(OC)cc1)C2=O,-6,nt,1,5,-8,-2,-9,i
C=CCOC(=O)C1=C(C)NC(C)=C(C(=O)OCC=C)C1c1ccco1,nt,1,-4,-2,-3,-8,2,i
